Ecoli rRNA inh: inhibits bacterial ribosomal RNA function over humanized ribosomes; GFP signal change (wild-type ribosome), % (test concentration not listed); 350,000 tested, 1.6% active; E. coli WT GFP vs humanized-ribosome RFP mutants, fluorescence, 24 h; active compounds read low; DMSO median 0, no signal -100; AID 720706;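 active = significant combined selectivity score with lowered wild-type GFP, culture density cut under 30%, mutant RFP and density less affected; inactive = any of these conditions unmet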; note: one replicate is shown; some compounds called inactive have numbers as strong as hits
Calb FLC: C. albicans growth modulation with fluconazole | C. albicans CaCi-2 (fluconazole-resistant clinical isolate) + fluconazole, Alamar Blue growth, 48 h | 300,000 tested, 0.57% active | growth inhibition, % (concentration not given with the values);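 active = most replicates above 75%; inconclusive = exactly half above 75%; inactive = most below 75%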;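 note: all wells also contain fluconazole at 8 µg/ml as a sub-toxic cotreatment; 0% = median of DMSO wells and 100% = median of geldanamycin control wells; wells of about 8 µL received 7.5 nL stock; the first replicate is given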
Beta cell apopt: beta cell apoptosis inhibition; INS-1E cytokine-induced death, ATP luminescence, 48 h; percent of positive-control rescue, neutral wells zero; protection from apoptosis, % (test concentration not listed); 300,000 tested, 0.8% active; AID 435005;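 active = all replicates at 75% or more, or half of them and the mean; inconclusive = half reach 75% but not the mean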;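 note: 0% = cytokine-treated negative control wells and 100% = positive control rescue; higher means more ATP so stronger rescue from cytokine killing; wells of about 40 µL received 100 nL stock; the first replicate is given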
Bfl-1 A1 inh: inhibitors of the anti-apoptotic protein A1, read as caspase activation. MEF A1-2A-BIM cells, Caspase-Glo 3/7 luminescence, 3 h; percent of clofoctol response, vehicle zero. caspase activation, % (no concentration beside the values). 330,000 tested, 0.066% active. AID 2462;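 active = over half of replicate activation scores above 10%, or exactly half above 10 with the replicate mean above 10; inconclusive = replicate mean below 10 yet half the replicates above 10; inactive = over half of replicates below 10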;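 note: wells of about 30 µL received 50 nL stock; many hits fall short of the cut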
T cruzi repl: blocks replication of Trypanosoma cruzi | T. cruzi beta-gal in NIH3T3, luminescence, 90 h | inhibition, % (test concentration not listed) | 300,000 tested, 1.4% active;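 active = mean inhibition across valid replicates above about 55%, limit read from the data; inconclusive = mean below that limit but half or more replicates reach it; inactive = mean below it, under half of replicates reach it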;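 note: signal also drops with host cell toxicity which is not excluded here; 0% = plate median of DMSO wells and 100% = zero luminescence signal; higher percent means less beta-gal luminescence so fewer parasites; stock transfer was 50 nL into about 50 µL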
Vif TR-FRET: HIV-1 Vif–A3G interaction blockers – biochemical, TR-FRET, GST-Vif 1-94, biotin-A3G peptide, dose response retest, primary screen (AID 1117319). 260,000 tested, 0.57% active. TR-FRET GST-Vif / biotin-A3G peptide binding; higher % means a stronger effect; test concentration not given here; strong numbers were not always called active. inhibition, %, or IC50 in µM where a hit was titrated;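 active = above the screen mean plus three standard deviations and confirmed in dose response; inconclusive = results disagree or hit not tested in dose response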;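 note: Vif residues 1-94 fused to GST binding biotinylated APOBEC3G peptide 110-148; 0% = full assay without inhibitor and 100% = GST in place of GST-Vif; retest series ran down from 100 µM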
RanGTP-Impb inh: inhibitors of RanGTP-importin-beta interaction, primary screen, biochemical, FRET, CFP-Ran, YFP-importin-beta, homogeneous; cell-free CFP-Ran/YFP-importin-beta FRET ratio; inhibition, % (test concentration not listed); 300,000 tested, 1.1% active; AID 2216;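 active = most replicates above 15%; inconclusive = exactly half above 15%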;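 note: 0% = DMSO wells and 100% = Ran loaded with GDP instead of GTP; wells of about 40 µL received 100 nL stock; the first replicate is given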
MLL AF4-AF9 inh: inhibitors of human MLL-AF4/AF9 interaction; P42568; AlphaScreen, biotin-AF4 peptide binding to FLAG-AF9; inhibition, % at 10 µM; 350,000 tested, 0.47% active;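 active = every replicate reaching a set inhibition limit, whatever the replicate mean, cut at about 25% in these data; inconclusive = mean inhibition reaches that limit but some replicates miss it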;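 note: 0% = plate neutral control median and 100% = total signal loss; the record names both 10 and 1 µM as test concentration; the first replicate is given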
Target sequence (P42568 whole entry, looked up): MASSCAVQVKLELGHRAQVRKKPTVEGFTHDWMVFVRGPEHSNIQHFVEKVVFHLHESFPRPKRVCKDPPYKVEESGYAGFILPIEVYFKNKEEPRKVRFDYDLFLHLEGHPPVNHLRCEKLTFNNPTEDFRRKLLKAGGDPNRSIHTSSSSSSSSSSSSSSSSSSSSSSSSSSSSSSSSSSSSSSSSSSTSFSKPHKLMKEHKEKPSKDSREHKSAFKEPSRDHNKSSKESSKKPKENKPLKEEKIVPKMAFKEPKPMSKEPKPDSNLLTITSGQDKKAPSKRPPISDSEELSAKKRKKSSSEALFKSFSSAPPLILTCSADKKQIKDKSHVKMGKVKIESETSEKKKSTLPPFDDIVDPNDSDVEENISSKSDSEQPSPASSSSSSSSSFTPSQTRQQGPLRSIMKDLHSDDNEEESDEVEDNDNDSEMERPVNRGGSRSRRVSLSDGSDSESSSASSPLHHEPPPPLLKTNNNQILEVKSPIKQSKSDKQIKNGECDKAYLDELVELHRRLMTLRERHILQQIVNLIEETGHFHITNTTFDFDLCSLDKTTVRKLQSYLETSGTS
Ecoli rRNA inh OD600: recorded beside Ecoli rRNA inh, whose call it bears; OD600 change, %; measured here: OD600 growth;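 optical density of the mix in the first replicate; 0 = DMSO median and -100 = no signal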
Ecoli rRNA inh RFP: second read-out of Ecoli rRNA inh, no call of its own (marks repeat the call); RFP signal change, %; measured here: RFP humanized mutant strains;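 first replicate; 0 = DMSO median and -100 = no signal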
An asterisk follows results filed as active; ? = inconclusive; / = no result given; & = joins results of further samples. Not all compounds are listed; the hit share may differ from the screen's.

SMILES	Ecoli rRNA inh	Ecoli rRNA inh OD600	Ecoli rRNA inh RFP	Calb FLC	Beta cell apopt	Bfl-1 A1 inh	T cruzi repl	Vif TR-FRET	RanGTP-Impb inh	MLL AF4-AF9 inh
CCOC(=O)c1c(NC(=O)Cn2cnc3scc(-c4ccc(C)cc4)c3c2=O)sc(C)c1C	/	/	/	-7	7	-1.0	11	13%	2.0	/
Cc1cccc(C(=O)NNS(=O)(=O)c2ccccc2)c1O	5	3	-0.1	?	-3	-1.7	-10	10%	-4.8	0.0
CCCN1CCN(C(=S)Nc2ccc(SC(F)F)cc2)CC1	-13	-9	-1.5	-9	-7	0.2	10	2%	-0.3	-1.2
COc1ccc(/C=N/Nc2cc(N3CCCC3)nc(N3CCCC3)n2)cc1	-18	-30	0.2	25	56	-0.1	67*	-3%	60*	12
Cc1ccc(C)c(NC(=O)Cn2nc(-c3ccccc3)nc2-c2ccccc2)c1	/	/	/	-9	1	0.1	14	-3%	-0.8	/
Cc1oc(-c2ccccc2F)nc1CN1CCC(C(=O)NCc2cccnc2)CC1	/	/	/	-18	-9	-0.1	-5	1%	-2.5	/
COc1cccc2c1OCC(C(=O)NCc1ccc(Cl)cc1Cl)=C2	-28	-51	4.3	20	1	0.0	-1	-3%	1.3	/
Cc1cc(NS(=O)(=O)c2ccccc2)cc(Cl)c1O	/	/	/	7	3	0.7	16	-2%	-2.6	/
CCOc1ccc(-c2nn(-c3ccccc3)cc2/C=C2\SC(=S)N(C3CCS(=O)(=O)C3)C2=O)cc1 (stereo not given)	/	/	/	-18	6	-2.1	16	-7%	2.5	/
Fc1ccc(-n2cc(CNCCc3ccccn3)c(-c3ccccc3Cl)n2)cc1	-42	-38	-11	-13	15	0.8	24	-1%	-2.1	6.1
Cc1ccccc1CN1CCN(C(=O)c2cc(-c3ccncc3)nc3ccccc23)CC1	-16	-19	-2.3	0	-1	0.3	26	-7%	-2.9	5.3
CN1C(=O)/C(=N\OC(=O)c2cccc3ccccc23)c2ccccc21	-15	-8	-0.5	7	-21	-0.2	-17	-7%	-4.9	8.5
O=C(Cn1cnc2c(OCc3ccccc3)ncnc21)NCCCc1ccccc1	0	0	-0.7	/	0	-0.1	/	-1%	/	-1.1
O=C(COc1ncnc2ccc(Br)cc12)NCc1ccc2c(c1)OCO2	/	/	/	-4	-6	-1.3	-2	-59%	4.1	/
NN=C(c1cccc([N+](=O)[O-])c1)c1cccc([N+](=O)[O-])c1	18	23	-0.1	-4	5	-0.3	-4	/	0.3	0.3
CCc1nnc(NC(=O)COc2ccc([N+](=O)[O-])cc2)s1	15	16	0.4	40	/	0.1	-18	-6%	-0.6	-19
COc1ccc(-n2c(Cc3cccn3C)nnc2SCC(=O)Nc2ccc3c(c2)OCCO3)cc1	5	5	-2.1	4	-3	-0.2	2	-1%	-1.6	6.6
O=C(O)/C=C/c1cnc2ccccc2c1	3	10	1.8	-5	5	0.0	-12	-5%	/	-17
NS(=O)(=O)c1ccc(NC(=O)Cc2cccs2)cc1	4	-6	-1.0	-8	-1	0.5	-5	/	-2.9	0.5
COC(=O)c1ccc(COC(=O)Cc2n[nH]c(=O)c3ccccc23)cc1	5	5	0.6	-11	0	0.7	-13	-12%	7.2	1.5
CCCCN(C(=O)CCC(=O)Nc1cc(C)on1)C(C(=O)NC1CCCC1)c1ccc(OC)cc1 (stereo not given)	-6	-12	3.0	3	2	-0.6	1	/	0.2	-12
COCCNC(=O)CNC(=S)N(CCCN1CCOCC1)Cc1cccs1	4	6	3.7	6	-2	0.8	-23	/	?	-2.7
CCn1c(CCCOc2ccc(Cl)cc2Cl)n[nH]c1=S	-34*	-5.3*	-2.7*	-19	-3	-0.9	-1	/	1.4	-7.9
COC(=O)COc1ccc(S(=O)(=O)NCc2ccccn2)cc1	-7	7	-2.7	0	-2	-0.2	-1	/	-7.0	2.7
COc1ccc(Nc2nc(C)cc(C)c2C(N)=O)cc1	/	/	/	-5	-5	1.7	0	12%	1.2	/
CC1CCc2c(sc(NC(=O)COC(=O)c3ccc(O)cc3)c2C#N)C1 (stereo not given)	-24	-9	-2.7	7	1	-0.5	15	-3%	-1.4	-3.4
CS(=O)(=O)Nc1ccc(C(=O)NCc2ccc3c(c2)OCO3)cc1	/	/	/	-6	0	-0.9	-13	0%	2.0	/
Cc1ccc(-c2csc3nc(-c4ccncc4)[nH]c(=O)c23)cc1	6	6	1.0	-12	18	-0.2	2	12%	1.0	3.6
O=C(NC1CC1)c1cc(-c2ccco2)nc2ccccc12	/	/	/	0	/	/	-7	2.5µM*	-4.6	/
COc1cc(OC)cc(C(=O)NC(=S)N2CCN(c3ccc(C(F)(F)F)cc3[N+](=O)[O-])CC2)c1	/	/	/	-7	13	0.5	13	1%&77%	0.3	/
CCN(c1ccccc1)S(=O)(=O)c1ccc(C(=O)Nc2c(C)n(C)n(-c3ccccc3)c2=O)cc1	-6	-4	-2.2	/	0	2.8	/	2%	/	-6.6
CSc1nc(-c2ccccc2)nc(SC)c1C(C)=O	/	/	/	-4	-2	3.0	34	2%	-4.6	/
O=C(NCCc1ccccc1)c1cccc(N2CCCC2=O)c1	/	/	/	2	0	-0.4	-5	/	-3.7	/
CN(CCOc1ccc(Cl)cc1)C(=O)c1cc(-c2ccco2)nc2ccccc12	-19	-40	-0.4	-9	1	0.3	13	2%	-0.8	-2.5
CCC(=O)c1ccc2c(c1)OCCO2	5	4	-2.1	4	-2	-0.4	-7	4%	2.6	0.4
Cc1noc(C)c1C(c1ccccc1)c1ccccc1	-47*	-22*	-2.9*	-1	-2	0.1	-11	3%	-3.6	-2.1
COc1ccc(N(C(=O)c2ccc(S(=O)(=O)N3CCOCC3)cc2)C2C=CS(=O)(=O)C2)cc1 (stereo not given)	/	/	/	3	-10	0.5	-10	12%	3.4	/
Cc1nc2ncnn2c(N2CCN(C(=O)c3cccc(F)c3)CC2)c1C	/	/	/	47	-3	1.4	-2	5%	-4.8	/
CSCCC(NC(=O)c1ccccc1)C(=O)NCCc1ccccc1 (stereo not given)	2	-11	0.1	2	-7	0.0	14	-6%	-8.0	2.2
CCc1noc(C)c1C(=O)N1CCCSC1=Nc1ccccc1OC	2	8	-0.7	0	/	0.7	-2	-10%	-0.4	-6.9
O=C(NC1CCCCC1)c1ccc2c(c1)OCCO2	3	14	-1.7	-9	/	-2.1	-8	/	5.2	-1.0
Cc1ncc(CO)c(CO)c1O	4	9	-2.1	-5	-7	0.7	-2	/	3.1	-2.1
COc1ccc(Cl)cc1NC(=O)CCCNC(=O)c1ccc(Cl)cc1	-6	-14	-0.7	-3	-4	2.1	0	0%	2.8	-8.9
CC(C)(C)C(=O)Nc1ccc(C(=O)Nc2cccnc2)cc1	/	/	/	-1	-14	0.3	-9	2%	1.9	/
Cc1ccc(S(=O)(=O)N2CCC(C)CC2)cc1[N+](=O)[O-]	9	9	-5.3	0	/	/	11	-7%	-2.4	-0.8
FC(F)(F)c1cnc(-n2cc[nH]c2=S)c(Cl)c1	/	/	/	2	-3	-0.2	-18	-4%	6.4	/
CC(=O)c1sc(NC(=O)c2ccco2)nc1-c1ccccc1	/	/	/	17	6	-2.1	0	-32%	-2.7	/
COc1ccc(C)cc1NC(=O)CN1CCN(C/C=C/c2ccccc2)CC1	/	/	/	-23	0	-0.4	46	?	-0.3	/
O=C(CSc1ncnc2c1oc1ccccc12)NCc1ccc(F)cc1	6	11	0.8	4	-22	-0.6	4	-1%	4.0	?
CCC1=Nc2cc(C(=O)NCc3cccnc3)ccc2Sc2ccc(C)cc21	-22*	-5.5*	1.4*	-22	10	-0.5	17	9%	-7.1	3.3
COc1cccc(-c2nn(C)c3sc(C(=O)NCCCN(C)Cc4ccccc4)cc23)c1	-54	-77	-23	11	11	0.4	51	-4%	-1.2	1.8
Cc1cc(Cl)c(S(=O)(=O)N2CCN(c3ccc(F)cc3)CC2)cc1OCC(N)=O	/	/	/	12	/	1.5	5	29%	-4.2	/
Cc1ccc(CNC(=O)COC(=O)c2cnccn2)cc1	3	-3	-8.3	10	-1	-0.3	-2	26%	3.1	4.4
Cc1ccc(C(=O)NC(=S)NNC(=O)CCN2CCOCC2)cc1	4	10	0.8	-5	-7	-0.6	-19	/	-2.0	-2.1
CC(=O)N1c2ccccc2C(C)(C)C2CCC(C)CC21 (stereo not given)	/	/	/	9	1	-0.4	0	5%	-2.3	/
CC(C)[C@H](NC(=O)OC(C)(C)C)c1nnc(SCC(=O)Nc2ccc(Br)cc2)o1	/	/	/	1	0	0.3	3	-2%	6.4	/
COC(=O)c1sc(N2C(=O)C(=O)/C(=C(/O)c3ccc(C)cc3)C2c2ccco2)nc1C (stereo not given)	/	/	/	1	-4	-0.7	0	-7%	9.4	/
Cn1cnc(S(=O)(=O)NCc2ccccc2)c1	/	/	/	-28	-2	0.6	-10	?	6.3	/
COc1ccccc1CCn1c(N)c(C#N)c2nc3ccccc3nc21	/	/	/	-3	0	-1.0	19	17%	56*	/
CC1CCN(CCCCOc2ccc(C(C)(C)C)cc2)CC1	8	-15	3.8	9	3	0.6	-16	-3%	2.1	1.2
Remaining list, next part:
SMILES	Ecoli rRNA inh	Ecoli rRNA inh OD600	Ecoli rRNA inh RFP	Calb FLC	Beta cell apopt	Bfl-1 A1 inh	T cruzi repl	Vif TR-FRET	RanGTP-Impb inh	MLL AF4-AF9 inh
CCOc1cc(N2CCOCC2)c(OCC)cc1NC(=O)COC(=O)c1ccccc1C	8	14	12	6	-2	0.1	29	/	0.1	-0.4
Cc1ccc(S(=O)(=O)CCC(=O)NCCc2ccccc2)cc1	4	6	-2.0	0	-4	0.1	-19	1%	5.4	-1.2
O=C(CN1CCN(S(=O)(=O)c2ccc(Cl)c(Cl)c2)CC1)N1CCCC1	-1	1	4.4	/	-12	-0.8	/	-2%	/	2.2
NS(=O)(=O)c1ccc(NN=C2CCCCC2)c([N+](=O)[O-])c1	0	0	-1.5	11	-6	-0.1	3	4%	-0.5	4.6
CCOc1ccc(NC(=O)C2CCCN2S(=O)(=O)c2ccc3c(c2)C(C)(C)C(=O)N3C)cc1 (stereo not given)	5	6	2.0	6	2	0.4	-4	/	3.9	0.0
OCCCc1nc2n(n1)C(c1cccs1)C=C(c1ccc(Br)cc1)N2 (stereo not given)	/	/	/	40	/	1.2	35	0%	-113	/
Cc1nn(CCCC(=O)Nc2cnn(Cc3ccc(F)cc3)c2)c(C)c1[N+](=O)[O-]	-9	-5	-4.4	2	0	0.8	-6	29%	-4.2	7.0
Cc1nc(N)sc1C(=O)N/N=C/c1ccccc1[N+](=O)[O-]	4	1	1.4	-5	-5	0.3	12	/	-1.5	-0.4
